Assay outcomes (PubChem BioAssay)
NPYLR7 agonist: mosquito NPYLR7 agonism; HEK293T NPYLR7/Galpha15, GCaMP6s calcium fluorescence; activation, % at 10 µM; actives 0.15% (n = 270,000); AID 1259423; in the data active = activation above about 40%;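 note: 0% = vehicle and 100% = reference agonist at the receptor; some compounds past the cut are filed as inactive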
NPYLR7 agonist max-min: also measured in NPYLR7 agonist; calls as there; activation, %; measured here: Max-Min RFU normalised activation; some inactives read as strong as hits;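 span of the calcium signal over five minutes; 0% = vehicle and 100% = native peptide agonist; compound fluorescence can raise it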
Active calls of the source: *; & = joins results of further samples. Not all compounds are listed (hit frequency here may not be typical).

SMILES | NPYLR7 agonist | NPYLR7 agonist max-min
COc1ccccc1NC(=O)N1CCc2ccccc2C1c1ccc(F)cc1 (configuration not stated) | 5 | 10
CC(C)C(=O)Nc1ccc(N(C)C)c(CN(Cc2ccco2)C(=O)c2cccs2)c1 | -6 | 5
Cc1ccc(C(CN2CCOCC2)Nc2nnc(C)c3ccccc23)cc1 (configuration not stated) | -3 | -5
CCCCOC(=O)c1ccc(NC(=O)c2cccn(OCc3ccccc3)c2=O)cc1 | 17 | 16
Cc1cc(C=C2C(=O)NC(=O)NC2=O)c(C)n1-c1cccc([N+](=O)[O-])c1 | -1 | -4
COCc1c(C(=O)NCc2ccc3c(c2)CCCN3C)cnn1-c1nccc(-c2ccco2)n1 | 24 | 16
CC(C)(CCl)C(=O)N1CCN(c2cc(Oc3ccc(Cl)cc3F)ncn2)CC1 | 0 | 1
Cn1cnnc1SCCNC(=O)Cn1c2c(c3ccccc31)CCC2 | 0 | -3
Cc1cc(C)n(-c2nnc(C)n2/N=C\c2ccccc2OCc2ccccc2Cl)n1 | 0 | 0
CN(CCc1cn[nH]c1)C(=O)[C@H]1C[C@@H](C(=O)O)N(C)[C@H]1c1ccccc1F | 6 | 4
Cc1cnc(CNC(=O)CC2COCCN2)cn1 (configuration not stated) | -5 | -6
CC(C)(C)c1ccc(S(=O)(=O)Nc2cc(Sc3ncn[nH]3)c(O)c3ccccc23)cc1 | -7 | -9
Cc1cc(C)n(-c2cccc(CN(C)Cc3nc(-c4ccc5c(c4)OCO5)no3)c2)n1 | 6&1 | 0&-3
CN1C[C@@H]2c3ccccc3Oc3ccc(Cl)cc3[C@H]2C1 | -11 | -15
Cc1ccc(S(=O)(=O)Nc2ccc(C)c(O)c2C)cc1 | 6 | 2
CCOC(=O)c1sc(SC)nc1N | -3 | -1
O=C(NCCC1=CCCCC1)c1cc(N2CCc3ccccc3C2)nc2ccccc12 | 15 | 7
COc1cc2c(cc1CN(C)Cc1ncc[nH]1)OCCCO2 | 15 | 3
Cc1cccc2[nH]c(C3CCCN3C(=O)c3cc(Cl)c[nH]c3=O)nc12 (configuration not stated) | -5 | -6
CC(=O)Nc1cc(C)c(C)s1 | -4 | -4
CCOC(=O)C1(NC(=O)C2(Oc3cccnc3C)CCNCC2)CCC1 | 7 | 4
O=C(Cc1ccccc1)NNC(=O)c1ccncc1 | -2 | -4
Cc1ccc2oc(C(=O)NC(C)c3ccccc3)cc2n1 (configuration not stated) | 8 | 2
COCCCN(CC(=O)N(CCc1c[nH]c2ccccc12)Cc1ccc(C(F)(F)F)cc1)C(=O)Nc1cccc(C#N)c1 | 21 | 34
CC[C@H]1CN(C(=O)c2sc(C)nc2-c2ccccc2)CC[C@@]1(C)O | -1&-1 | -2&1
COc1ccc(CN2CCN(C3C4CC5CC(C4)CC3C5)CC2CCO)c(F)c1 (configuration not stated) | 6 | -1
COc1ccc(C(=O)CSc2nc3c(cnn3CCO)c(=O)[nH]2)cc1 | 4 | 2
O=c1nc(-c2ccccc2)c(-c2ccccc2)n[nH]1 | -2&-2 | -5&-4
CC(=O)Nc1cc2ccccc2oc1=O | -14 | -19
CC(C)OC(=O)c1ccc(N=CC(C#N)c2nc(C3CC3)cs2)cc1 (configuration not stated) | 6 | 6
CC(O)CCN(C)c1ccc(Cl)cc1C#N (configuration not stated) | 4 | 0
COCCc1noc(-c2cnc(-c3ccsc3)s2)n1 | 4 | 4
Cc1cc2nc(-n3ncc4ccc([N+](=O)[O-])cc43)c3ccccc3n2n1 | -4 | -7
O=C(CCC1CCN(C(=O)CCc2cnccn2)CC1)Nc1ccc(F)c(Cl)c1 | 16 | 7
Cc1ccc(S(=O)(=O)Oc2ccccc2/C=C2\N=C(c3ccccc3)OC2=O)cc1 | 1 | 0
O=C1C(=O)N(CO)c2ccc(Br)cc21 | 2 | 1
Cc1cc(C)n2ncc(C(=O)NC(C3CC3)C3CC3)c2n1 | -2 | -3
C=C1CC[C@H](O)C/C1=C/C=C1\CCC[C@]2(C)C([C@H](C)/C=C/[C@H](C)C(C)C)CC[C@@H]12 (some centres not stated) | -6 | -11
CCC1C(O)CC2(OC1C)OC(C(C)/C=C/C=C/C(=O)O)C(C)C(O)C2C (configuration not stated) | -8 | -15
CN(CC1OCCO1)C(=O)c1ccc(Cc2ccccc2)o1 | -7 | -11
CCOC(=O)C1C(=O)CSC1=Nc1ccc([N+](=O)[O-])cc1 (configuration not stated) | 0 | 12
CC1Cc2ccccc2N1Cc1cc(=O)c(OCC(=O)c2ccc(Cl)cc2)co1 (configuration not stated) | -3 | 19
COc1ccc(CN2CCN(Cc3cccc(C(C)=O)c3)CC2CCO)c(F)c1 (configuration not stated) | -6 | -7
CC1CCCN(S(=O)(=O)c2cc3c(=O)nc4ccc(Cl)cn4c3cc2Cl)C1 (configuration not stated) | 0 | 25
COc1cc(CN2CCN3CCN(C)C(=O)C3C2)c(Cl)cc1O (configuration not stated) | 9 | 6
Cc1cccc2sc(N(CCCN(C)C)C(=O)c3ccc([N+](=O)[O-])o3)nc12 | 2 | 1
CN(C)S(=O)(=O)N1CCCC(N2CCN(Cc3ccc4c(c3)OCO4)CC2)C1 (configuration not stated) | 17 | 11
COc1ccc(NC(=O)C(C(=O)Nc2ccc(OC)cc2)C23CC4CC(CC(C4)C2)C3)cc1 | 2 | 0
Cc1ccc(Cl)cc1NC(C)C(=O)NC1CC1 (configuration not stated) | 5 | 2
Nc1nc(SCCO)[nH]c(=O)c1NC(=O)c1ccc(C(F)(F)F)cc1 | 0 | -1
Additional compounds:
SMILES | NPYLR7 agonist | NPYLR7 agonist max-min
CCn1ncnc1-c1c(-c2ccccc2)ncn1CC1(O)CCCCC1 | -1 | -6
C=CCn1c(-c2c(-c3ccccc3)ncn2CCO)nc2ccccc21 | 28 | 16
CCOC(=O)c1ccccc1NC(=O)CSc1nc(=O)n2ccccc2n1 | 2 | -1
CC(Cn1ccc2ccccc21)NC(=O)c1cn(C2CCCCC2)nn1 (configuration not stated) | -10 | -11
CCN(C1CC1)S(=O)(=O)c1c(C)nn(Cc2noc(C)n2)c1C | 11 | 8
COCCNC(=O)c1ccc(Cl)c(NCc2c(C)noc2C)c1 | -1 | -4
CCc1nc2n(n1)C(=O)C(C(c1cccs1)N1CCC(C(N)=O)CC1)S2 (configuration not stated) | 0 | -10
COC(=O)C1(CNc2ncccn2)CCCC1 | -3 | -4
C=CCNC(=O)N(Cc1cccc(C)c1)c1ccc(CC(=O)NCc2ccc(F)cc2)cc1 | 5 | 2
CCNC(=O)NC(=O)CN1CCCC1C1CCCN(Cc2ccccc2)C1 (configuration not stated) | 6 | 3
Cn1cnc2cc(C(=O)N3CCCC(Cc4ccc(C(=O)O)cc4)C3)cnc21 (configuration not stated) | 2 | -3
CN(C(=O)CCCN1CCOCC1)C1CCCc2ccccc21 (configuration not stated) | -4 | -6
O=C1OC(c2nn3c(-c4ccccc4)nnc3s2)Cc2ccccc21 (configuration not stated) | -5 | -9
COCCNC(=O)C(NC(=O)c1ccc(F)cc1)C1CCN(S(=O)(=O)C(C)C)CC1 (configuration not stated) | 5 | 3
CN=c1scc(-c2ccc(F)cc2)n1/N=C(\C)c1ccncc1 | 0 | -1
Cc1cccc(C(=O)N2CCN(c3ccc(F)cc3)C(=O)C2C)c1 (configuration not stated) | -2 | -1
CCCC(=O)C1=C(c2ccc(OC)c(OC)c2)N(C(=O)CCC)n2c(CC)nnc2S1 | 3 | -2
Cc1ccc(C)c(NC(=O)CSc2ccc(S(=O)(=O)N3CCOCC3)cn2)c1 | 8 | 3
CCOc1ccc(NC(=O)NC(C(=O)Nc2nnc(-c3cccc(Br)c3)s2)C(C)CC)cc1 (configuration not stated) | 24 | 25
Cc1noc(-c2ccc(OC(F)(F)F)cc2)c1C(=O)NCCCN1CCOCC1 | 4 | 3

In a second layout: results already given
Sequence of screens – NPYLR7 agonist	NPYLR7 agonist max-min
- O=C1OC(c2nn3c(-c4ccccc4)nnc3s2)Cc2ccccc21 (configuration not stated)
  -5	-9
- CCOc1ccc(NC(=O)NC(C(=O)Nc2nnc(-c3cccc(Br)c3)s2)C(C)CC)cc1 (configuration not stated)
  24	25
- COCCNC(=O)C(NC(=O)c1ccc(F)cc1)C1CCN(S(=O)(=O)C(C)C)CC1 (configuration not stated)
  5	3

(further entries)
SMILES | NPYLR7 agonist | NPYLR7 agonist max-min
c1ccc(COC2CCCN(Cc3cnc(-c4ccccn4)nc3)C2)nc1 (configuration not stated) | -3 | 11
CC(C)C1OC(=O)C2(CCCCC2)C(=O)C1(C)C (configuration not stated) | 2 | -2
O=C(C1CCCN(c2nnc(N3CCCC3=O)s2)C1)N1CCN(C2CCCCC2)CC1 (configuration not stated) | 3 | 1
O=C(N1CCN(Cc2nnnn2-c2ccc(F)cc2)CC1)C12CC3CC(CC(C3)C1)C2 | 0 | -1
Cc1nccn1S(=O)(=O)c1cc(Cl)ccc1Cl | -3 | -5
COc1cccc(C(=O)N2CCCN(C(=O)C(C)N3CCc4sccc4C3c3ccccc3C)CC2)c1 (configuration not stated) | 15 | 0
C1=Nc2ccccc2-c2nnc(SCc3ccccc3)nc2O1 | 9 | 3
CCOc1nc(NCc2cccnc2)ncc1Br | 5 | 5
Cc1cc(C)c(NC(=O)CNC(=O)CCN2C(=O)COc3ccccc32)c(C)c1 | 0 | -4
COc1ccc(N2CCN(Cc3nc4c(c(=O)n(C)c(=O)n4C)n3CC(C)=O)CC2)cc1 | 1 | 8
O=C(C1=C(O)C(=O)N(CCN2CCOCC2)C1c1cccs1)c1ccco1 (configuration not stated) | 13&4 | 6&2
C=CCn1c(=O)c2c(nc3n(-c4cccc(Cl)c4)c(C)c(C)n23)n(C)c1=O | 4 | 38
COCCNC(=O)C(c1ccccc1)c1ccccc1 | 14 | 5
O=C(NCc1cccs1)c1ccc(-c2cc(-c3cccc4ccccc34)[nH]n2)cc1 | 26 | 12
CC(C)NC(=O)Nc1ccc(CNC(=O)CSc2ccc(C(F)(F)F)cn2)cc1 | -6 | -8
Cc1ccc(-n2nc(-c3cccn3C)cc2C(=O)NC(C)CCc2ccccc2)c(C)c1 (configuration not stated) | 18 | 25
CN1C(=O)C(Cc2ccccc2)ON=C1c1cccc(F)c1 (configuration not stated) | 7 | 0
Cc1nnc(C2Cc3ccccc3CN2CCS(C)(=O)=O)o1 (configuration not stated) | 4 | 5
Cc1ccc(S(=O)(=O)n2ccnc2)cc1 | -3 | -5
COc1ccc(Nc2nc(N3CCCC3)nc(N)c2[N+](=O)[O-])cc1 | -1 | -1
CCCCN(Cc1cccn1Cc1cccc(C)c1)C(=O)CN(CCOC)C(=O)c1cccc(C(F)(F)F)c1 | -4 | 3
Cc1n[nH]c(C)c1NC(=O)CN1CCN(C)c2cc(F)ccc21 | -23&3 | -27&3
COCCn1cc(C(=O)NC2CCCCC2)c2nn(-c3ccccc3)c(=O)c-2c1 | 2 | 1
Cc1ccccc1OCc1ccc(-c2nc(C#N)c(N3CCC(C(N)=O)CC3)o2)o1 | 0 | 28
CN1CCC2(CC1)CN(C(=O)CCN1CCCC1)CCN2C | 23 | 16
Cc1cc(N(C)Cc2ncccc2C)nc(-c2ccccc2)n1 | 4 | 13
O=S(=O)(c1ccccc1F)N1CCOCC1 | 11 | 16
O=S(=O)(CCNC(c1ccccc1)c1ccoc1)c1ccccc1 (configuration not stated) | -2 | -3
O=C(Cc1ccc(N2CCNC2=O)cc1)N1CCC2(CCCO2)CC1 | 21 | 7
OC(CN(Cc1ccc(F)cc1)CC1CC(c2ccc(Cl)cc2)=NO1)c1ccccc1 (configuration not stated) | -2 | -1
C=CCn1c(SCC(=O)N2CCOCC2)nc2c([nH]c3ccccc32)c1=O | -2 | -3
CS(=O)(=O)N1CCC(NC(=O)c2onc3ccccc23)CC1 | 1 | 0
COc1ccc(C)cc1NC(=O)c1cc2ccccc2cc1OCC#N | -2 | -4
O=C(Nc1nncs1)NC1(Cc2ccc(Br)cc2)CCCCC1 | 13 | 11
Nc1ccc2nc3ccccc3nc2c1 | -2 | -5
c1cc(-c2nccn2-c2ccc3cn[nH]c3c2)ccn1 | 7 | -1
CCOc1ccc(S(=O)(=O)N2CCOC(c3ccccc3)C2)cc1C (configuration not stated) | -9 | -11
C=CC(=O)N=C1N=C2C=CC(Br)=CN2Cc2ccccc21 | 3 | 1
COC(=O)[C@H](Cc1ccccc1)NC(=O)[C@@H](N)CC(=O)O | -3 | -13
CC(C)CC(=O)N(CCN1CCOCC1)CC(=O)N1CCc2sccc2C1COc1ccc(F)cc1 (configuration not stated) | -2 | 2
O=C(CCC1CCCC1)NCC1=CCCN(C2C=CCCC2)C1 (configuration not stated) | 24 | 7
CN1CCCC1C(=O)NCc1ccc(OC(F)F)cc1 (configuration not stated) | 9 | 13
Cc1ccc(NC(=O)N(CC(=O)N(Cc2ccc(F)cc2)Cc2ccc(C)o2)CC2CCCO2)c(C)c1 (configuration not stated) | -4 | -1
CC(C)Nc1nc(-c2ccc(Br)s2)cs1 | -1 | -3

Among those listed so far, these contain an aryl methoxy group.
SMILES | NPYLR7 agonist | NPYLR7 agonist max-min
COc1ccccc1NC(=O)N1CCc2ccccc2C1c1ccc(F)cc1 (configuration not stated) | 5 | 10
COc1cc2c(cc1CN(C)Cc1ncc[nH]1)OCCCO2 | 15 | 3
COc1ccc(CN2CCN(C3C4CC5CC(C4)CC3C5)CC2CCO)c(F)c1 (configuration not stated) | 6 | -1
COc1ccc(C(=O)CSc2nc3c(cnn3CCO)c(=O)[nH]2)cc1 | 4 | 2
COc1ccc(CN2CCN(Cc3cccc(C(C)=O)c3)CC2CCO)c(F)c1 (configuration not stated) | -6 | -7
COc1cc(CN2CCN3CCN(C)C(=O)C3C2)c(Cl)cc1O (configuration not stated) | 9 | 6
COc1ccc(NC(=O)C(C(=O)Nc2ccc(OC)cc2)C23CC4CC(CC(C4)C2)C3)cc1 | 2 | 0
CCCC(=O)C1=C(c2ccc(OC)c(OC)c2)N(C(=O)CCC)n2c(CC)nnc2S1 | 3 | -2
COc1cccc(C(=O)N2CCCN(C(=O)C(C)N3CCc4sccc4C3c3ccccc3C)CC2)c1 (configuration not stated) | 15 | 0
COc1ccc(N2CCN(Cc3nc4c(c(=O)n(C)c(=O)n4C)n3CC(C)=O)CC2)cc1 | 1 | 8
COc1ccc(Nc2nc(N3CCCC3)nc(N)c2[N+](=O)[O-])cc1 | -1 | -1
COc1ccc(C)cc1NC(=O)c1cc2ccccc2cc1OCC#N | -2 | -4
